GIV Gai3 FP – inhibitors of GIV peptide binding to Galpha-i3, primary screen, biochemical, fluorescence polarization, FITC-GIV GBA peptide, rat Galphai3. 90 min; hits give low values; scaled: aluminum fluoride 0%, vehicle 100%. percent of control (FP), % (test concentration not listed). 0.42% of 210,000 active;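 active = replicate mean at 85% of control or lower, very high polarization wells dropped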;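 also: wells of about 15 µL received 100 nL stock; the first replicate is given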
Target sequence (P08753 whole entry, looked up): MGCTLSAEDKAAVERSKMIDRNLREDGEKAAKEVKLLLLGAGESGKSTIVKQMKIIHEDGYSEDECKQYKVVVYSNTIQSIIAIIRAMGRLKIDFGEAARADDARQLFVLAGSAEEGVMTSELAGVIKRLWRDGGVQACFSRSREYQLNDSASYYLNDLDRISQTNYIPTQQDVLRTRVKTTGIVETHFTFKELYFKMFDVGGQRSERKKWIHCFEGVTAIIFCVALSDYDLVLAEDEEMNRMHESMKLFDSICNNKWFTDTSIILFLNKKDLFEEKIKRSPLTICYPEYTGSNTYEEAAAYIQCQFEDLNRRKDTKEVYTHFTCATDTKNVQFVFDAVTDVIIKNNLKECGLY
The depositor's hits bear a star.

SMILES	GIV Gai3 FP
Cc1cc(N2CCCC2)n2nc(CN3CCN(C(C)C)CC3)nc2n1	98
O=C1COc2ccc(S(=O)(=O)N3CCCCC3)cc2N1Cc1noc(C2CCC2)n1	98
COCCNC(=O)c1cc(NS(=O)(=O)c2ccc(Br)cc2)cnc1N1CCNCC1	100
Cc1ccsc1C1CC(=O)Nc2c1c(C)nn2-c1nc2ccccc2[nH]1 (stereo not given)	107
CCC(C)NC(=O)c1ccc(-c2nccc(Oc3cccc(OC)c3)n2)cc1 (stereo not given)	104
COc1ccc(C(=O)Nc2ccc(N3CCN(c4ccccc4Cl)CC3)c(C(=O)O)c2)cc1	108
OC(c1cccc(F)c1)C1CCN(Cc2ccco2)CC1 (stereo not given)	107
O=S(=O)(c1ccc(Br)cc1)N1CCN(c2ccc(N3CCOCC3)nn2)CC1	100
COc1ccc(NC(=O)N2CCN(c3nc4ccccc4n4cccc34)CC2)cc1OC	100
O=C(CCc1nc(CSc2nc3ccccc3[nH]2)no1)Nc1ccccc1	100
O=S(=O)(c1ccc(F)cc1F)N1CCc2nc(-c3ccc(F)cc3)ncc2C1	105
CCOC(=O)c1cc(-c2ccccc2)sc1NC(=O)c1ccc(Br)cc1	120
Cc1ccc(N2CCN(C(=O)c3sc4ncccc4c3-n3cccc3)CC2)c(C)c1	103
CN(CCOC(=O)C1CC(=O)N(c2ccccc2)C1)C1=NS(=O)(=O)c2ccccc21 (stereo not given)	109
COc1cc(C2C3=C(CC(C)(C)CC3=O)OC3=C2C(=O)CC(C)(C)C3)cc([N+](=O)[O-])c1O	111
Cc1cc(F)ccc1NS(=O)(=O)c1c(C)sc(C)c1-c1cc(C(F)(F)F)on1	107
CCCCCC1(CCCCC)NC(=S)N(c2ccccc2)N1	106
Cn1c(SCc2cccc(Br)c2)nc2c(=O)[nH]cnc21	99
Cn1nc(-c2ccccc2F)c2cc(C(=O)OCc3ccc(Cl)cc3)sc21	110
COc1cccc(C2(O)CC(C(F)(F)F)=NN2C(=O)c2ccccc2O)c1 (stereo not given)	119
CCOc1ccc(C2=NN3C(C2)c2cc(Cl)ccc2OC3c2cc(OC)c(OC)c(OC)c2)cc1 (stereo not given)	104
COc1ccc(OCC(=O)c2ccc(OCC3OC(OC(C)=O)C(OC(C)=O)C(OC(C)=O)C3OC(C)=O)cc2O)cc1 (stereo not given)	111
CCOCCOC(=O)C1=C(C)NC2=C(C(=O)CC(c3cccs3)C2)C1c1cc(Br)ccc1F (stereo not given)	108
CCOC(=O)C1=C(C)NC2=C(C(=O)C(C(=O)OCC)C(c3cccc(OC)c3)C2)C1c1ccc(C)cc1 (stereo not given)	95
CC(=O)n1c2c(c3ccccc31)OC(N)=C(C#N)C2c1cccc(F)c1 (stereo not given)	109

Ordered by value in GIV Gai3 FP (highest first): some entries from above
smiles	GIV Gai3 FP
COc1ccc(OCC(=O)c2ccc(OCC3OC(OC(C)=O)C(OC(C)=O)C(OC(C)=O)C3OC(C)=O)cc2O)cc1 (stereo not given)	111
OC(c1cccc(F)c1)C1CCN(Cc2ccco2)CC1 (stereo not given)	107
CCCCCC1(CCCCC)NC(=S)N(c2ccccc2)N1	106
CCOc1ccc(C2=NN3C(C2)c2cc(Cl)ccc2OC3c2cc(OC)c(OC)c(OC)c2)cc1 (stereo not given)	104
COCCNC(=O)c1cc(NS(=O)(=O)c2ccc(Br)cc2)cnc1N1CCNCC1	100
O=C1COc2ccc(S(=O)(=O)N3CCCCC3)cc2N1Cc1noc(C2CCC2)n1	98

(further entries)
SMILES	GIV Gai3 FP
CCOC(=O)CC(=O)CSc1nc2c(sc(=S)n2-c2ccc(OCC)cc2)c(=O)[nH]1	108
O=C(COc1ccc(Cl)cc1Cl)OCCCN=C1NS(=O)(=O)c2ccccc21	103
Cc1ccc(S(=O)(=O)N2CCCC(C(=O)NCC(=O)N3CCCc4ccccc43)C2)cc1 (stereo not given)	101
COc1cccc(NC(=O)c2nc(N3CCCC3)c3c(C)c(C)n(-c4ccccc4)c3n2)c1	97
CCc1ccc(C2Nc3cccc4cccc(c34)N2)cc1	104
O=C(Nc1ccc2c(c1)OCCOCCOCCOCCO2)Nc1ccc2c(c1)OCCOCCOCCOCCO2	105
O=C1CC(c2cccc(Br)c2)c2ccc3ccccc3c2N1 (stereo not given)	109
O=C(NC1CCCCC1)c1cc(S(=O)(=O)N2CCOCC2)ccc1Sc1ccc(Br)cc1	100
CCOc1ccc(-c2[nH]nc3c2C2(C(=O)N(CC(=O)O)c4ccccc42)C(C#N)=C(N)O3)cc1 (stereo not given)	100
CCOc1cc(C2C(C(=O)N3CCOCC3)=C(C)NC3=C2C(=O)CC(C)(C)C3)cc(Br)c1OC (stereo not given)	106
CCOC(=O)c1c(-c2ccccc2)oc2ccc(OC(=O)COc3c(F)c(F)c(F)c(F)c3F)cc12	107
COc1cc(/C=C2/SC(=O)N(CNc3ccccc3F)C2=O)cc(OC)c1OC	121
O=C(CCCCCn1c(=S)[nH]c2ccc(Br)cc2c1=O)N1CCN(c2ccccn2)CC1	109
CCc1ccccc1NC(=O)Nc1ccc2c(c1)N(C(=O)c1ccc(C)cc1)CC2	109
CC(C)CCn1nc2c(S(=O)(=O)N3CCOCC3)cccn2c1=O	107
Cc1[nH]n(-c2cccc(Cl)c2)c(=O)c1C=Nc1ccc([N+](=O)[O-])c([N+](=O)[O-])c1	114
CCC(=O)n1cc(/C=c2\sc3nc4ccccc4n3c2=O)c(-c2ccc(F)cc2)n1	105
Clc1ccc(-c2noc(-c3cc(N4CCSCC4)nc4ccccc34)n2)cc1	114
O=C(Cc1c(Sc2cccc(F)c2)[nH]c2ccccc12)N1CCN(c2ccccn2)CC1	106
Cc1noc(C)c1C1CCCN1Cc1ccc(F)c(Br)c1 (stereo not given)	101
CC(C)CNC(=O)C1=CSCCO1	100
CCOC(=O)c1ccccc1NC(=O)CSc1nc2n[nH]c(C)c2c(=N)n1-c1ccc(OCC)cc1	103
COc1ccc(Cl)cc1NC(=O)N1CCCN(c2nc3cc(Br)ccc3n3cccc23)CC1	101
CCOC(=O)c1c(NC(=O)CSc2nnc(CNC(=O)Cc3ccccc3)n2C)sc2c1CCCC2	106
COc1cccc(NC(=O)NCc2c(C)nn(-c3ccccc3)c2-n2cccc2)c1	103

Three of the compounds above, in markdown:
| SMILES | GIV Gai3 FP |
| --- | --- |
| O=C(CCCCCn1c(=S)[nH]c2ccc(Br)cc2c1=O)N1CCN(c2ccccn2)CC1 | 109 |
| CCOC(=O)CC(=O)CSc1nc2c(sc(=S)n2-c2ccc(OCC)cc2)c(=O)[nH]1 | 108 |
| COc1cccc(NC(=O)c2nc(N3CCCC3)c3c(C)c(C)n(-c4ccccc4)c3n2)c1 | 97 |

Following part:
SMILES	GIV Gai3 FP
O=c1c2cn[nH]c2nc(SCc2cc(=O)n3cc(Br)ccc3n2)n1-c1ccc(Br)cc1	102
COc1cccc(NS(=O)(=O)c2cc(C(=O)N3CCN(c4ccccc4)CC3)ccc2NCc2ccc(F)cc2)c1	113
CCOC(=O)C1=C(N)Oc2ccc3ccccc3c2C1c1cccc([N+](=O)[O-])c1 (stereo not given)	105
CCOC(=O)c1cccc(-c2ccc(/C=C3\C(=O)N(c4ccc(S(N)(=O)=O)cc4)N=C3C(F)(F)F)o2)c1	108
CC1CCCN(c2ccc(-c3noc(CN4CCC5(CC4)OCCO5)n3)cn2)C1 (stereo not given)	103
O=C(NC1CCS(=O)(=O)C1)c1ccccc1NC(=O)c1nsc2ccccc12 (stereo not given)	98
O=C(Nc1ccccc1C(F)(F)F)c1cc(S(=O)(=O)N2CCN(c3ccccc3)CC2)ccc1F	104
COc1cc(C2C(C#N)=C(N)Oc3n[nH]c(-c4ccc(C)cc4)c32)cc(OC)c1OC(=O)N1CCOCC1 (stereo not given)	108
Cc1csc(-c2cc(S(=O)(=O)Nc3cc(C)nc4ccccc34)c(C)s2)n1	98
N#CC(C#N)=C1CSc2sc(=S)sc2SC1	106
Cn1c2c(c(=O)n(C)c1=O)C(c1cccc(I)c1)C1C(=O)c3ccccc3C1=N2 (stereo not given)	107
Cn1nc(-c2nc(-c3ccccc3)no2)c2c1CCN(S(C)(=O)=O)C2	105
CC(=O)Oc1ccc([C@@H]2[C@@H](C(C)=O)N3c4ccccc4C=C[C@@H]3C2(C#N)C#N)cc1	123
Cc1cccc(-c2nc3c4ccccc4n(CC(=O)c4cc(C)ccc4C)c(=O)n3n2)c1	98
COc1cccc(N2C(=O)C3C4C=CC(C(OC(C)=O)OC(C)=O)(O4)C3C2=O)c1 (stereo not given)	107
CN1CCN(c2ncnc3c2cnn3-c2ccc(F)cc2)CC1	96
CCCn1c(C2CCN(S(=O)(=O)CC)C2)nc2cccnc21 (stereo not given)	105
COc1cccc(NS(=O)(=O)c2ccc3c(c2)c(=O)n(CCC(=O)N2CCCC2)c(=O)n3C)c1	109
Cn1cc2c(N3CCSCC3)nc(C(=O)N3CCN(C4CCCC4)CC3)nc2n1	102
CC(C)c1nn2c(S(=O)(=O)NC3CCCC3)c(C(C)C)nc2s1	104
COC(=O)C1=C(C(=O)OC)SC(=C2C(=S)C(C)(C)N(C(=O)CN3C(=O)c4ccccc4C3=O)c3ccc(C)cc32)S1	97
COc1ccc(-n2c(Nc3nc(C)cc(C)n3)nc(C)cc2=O)cc1	102
CCOc1cc(C2C(C(=O)OC(C)C)=C(C)NC3=C2C(=O)CC(c2cccs2)C3)cc([N+](=O)[O-])c1O (stereo not given)	115
CCNC(=O)N1CCC(OC(C)=O)CC1	98
COc1cc(/C=c2\sc3nc(-c4ccccc4OC(C)=O)nn3c2=O)ccc1OCCC(C)C	117
The listing continues:
SMILES	GIV Gai3 FP
CCN(CC)C(=O)CSc1nc2ccccc2n1C(=O)OCC(C)C	114
COc1cc(-c2nc3ccccc3c(=O)n2CCN2CCOCC2)cc(OC)c1OC	121
CCOc1ccc(C2C(N3C(=O)c4c(Cl)c(Cl)c(Cl)c(Cl)c4C3=O)C(=O)N2c2ccc(C)cc2Br)cc1 (stereo not given)	116
Cc1cc2nc3c(=O)[nH]c(=O)[nH]c3nc2cc1N	64*
COc1cc(C2C(C#N)=C(N)OC3=C2C(=O)CC(c2ccco2)C3)ccc1OC(=O)N1CCOCC1 (stereo not given)	112
NC(=O)C1CCN(C(=O)c2ccc3c(=O)n(Cc4ccco4)c(SCC(=O)c4ccc(F)cc4)nc3c2)CC1	122
Cc1cccc(CNC2=NCCNC23CCC(c2ccccc2)CC3)c1 (stereo not given)	101
Cc1ccc(C2C3=C(CC(c4ccco4)CC3=O)Nc3ccccc3N2C(=O)c2ccccc2)cc1 (stereo not given)	107
Cc1ccc(CS/C(Nc2ccccc2C)=C(\C#N)C(=O)NCc2ccco2)c(C)c1	103
COCc1cc(C)nc2sc(C(=O)c3ccccc3)c(N)c12	104
CCOC(=O)CNC(=O)NCc1ccnc(N(CC)CC)c1	104
Cc1cccc(N=CC23c4ccccc4C(c4ccccc42)C2C(=O)N(c4ccc(Br)cc4)C(=O)C23)c1 (stereo not given)	108
O=C(NCc1ccc2c(c1)OCO2)c1ccc(CN2C(=O)C3CCCN3C(=O)c3ccccc32)cc1 (stereo not given)	97
CN(C)c1nc(N(C)C)nc(N2CC(=O)N(c3ccccc3)C2=N)n1	112
CC(=O)Nc1nc2c(c3c1c(=O)oc1ccccc13)CCCC2	109
Nc1c(C(=O)NCCc2ccccc2)sc(=S)n1-c1cccc(C(F)(F)F)c1	105
COc1ccc(CNC(=O)c2ccc(Oc3ccnc(-c4ccc(F)cc4)n3)cc2)cc1	101
CN(Cc1cccn1C)C(=O)NC1CCCC1	104
Cc1nc(-c2cc(NC(=O)CN3C(=O)COc4ccc(Cl)cc43)c(C)s2)no1	95
Cn1c(=O)c(=O)n(C)c2cc(S(=O)(=O)C3CCCCC3)c(NC(=O)c3cccc(Cl)c3)cc21	102
CC1CCN(S(=O)(=O)c2ccc(CNC(=O)C3(c4ccccc4)CC3)s2)CC1	104
Cc1cccc2c1NC(C)(C)c1ssc(=Nc3cccc(Cl)c3)c1-2	105
COc1ccc(NC(=O)Nc2nnc(SCC(=O)Nc3cccc(OC)c3)s2)cc1	98
CCOC(=O)c1c(NC(=O)c2ccc(Cc3ccc(C)cc3)o2)sc2c1CCC(C#N)(c1ccccc1)C2 (stereo not given)	113
CCOc1cccc2c1OC(c1cc(OC)c(OC)c(OC)c1)N1N=C(c3cccc(OC)c3)CC21 (stereo not given)	101

GIV Gai3 FP, entries above that show a hit.
SMILES	GIV Gai3 FP
Cc1cc2nc3c(=O)[nH]c(=O)[nH]c3nc2cc1N	64*

Other structures follow.
SMILES	GIV Gai3 FP
CC(C)CCNC(=O)N1CCC(N2CCN(Cc3ccccc3)C(=O)C2=O)CC1	96
Cc1cccc2c1NC(C)(C)c1ssc(=Nc3cccc(Cl)c3C)c1-2	108
O=C(CCc1nc(CS(=O)(=O)c2ccc(F)cc2)no1)NC1CC1	103
CC(=O)OCc1c(C)ccc(C2C(C#N)=C(N)OC(N)=C2C#N)c1C	-1.1*
COc1ccccc1NC(=O)Cn1cnc2sc(C(=O)N3c4ccc(F)cc4CCC3C)c(C)c2c1=O (stereo not given)	98
Cc1c(NC(=O)/C(C#N)=C/c2ccc(C(C)(C)C)cc2)c(=O)n(-c2ccccc2)n1C	102
CN1/C(=C/C=C/C=C/C=[N+](C)c2ccccc2)C(C)(C)c2ccccc21	258
NS(=O)(=O)c1ccc(CNS(=O)(=O)c2cccc3nsnc23)cc1	110
COc1cc([C@@H]2[C@H]3CN(C)CC=C3C(C#N)=C(N)C2(C#N)C#N)ccc1OC(C)C	113
CCS(=O)(=O)c1c(S(=O)(=O)CC)c2cc(-c3ccncc3)ccn2c1C(=O)c1ccc(C)cc1	108
COc1ccc(C(=O)OCCN2CCN(C3=NS(=O)(=O)c4ccccc43)CC2)cc1	99
O=C(CSc1nnc2c(n1)-c1cccc3cccc-2c13)N1CCOCC1	114
COc1ccc(OC)c(S(=O)(=O)N2CCN(c3ncnc4c3nnn4-c3ccccc3)CC2)c1	99

These rows are one share of the data. The share of hits here may be higher or lower than overall.
